# HSV augment = HSV replication enhancement | AID 1956 | 0.005% of 220,000 active | HSV replication augmentation in cells, fold increase | maximum fold increase;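 active means peak rise of 1.5-fold or more in the series; inconclusive means self-fluorescent or not available for retest; tested in PC3 cells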;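 further: first round at 10 µM; read as green reporter fluorescence; hits show the peak of a series up to 25 µM; 1 = signal of infected wells without compound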
# GALR2 agonist = agonists of human galanin receptor 2 (GALR2); GALR2-expressing cells, agonist activation read-out; activation, %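 (tested at 5 µM)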; 0.48% of 140,000 active; O43603;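 active means above mean plus 3 SD of all compounds, about 5% in these data, not always enough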;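 further: 0% = vehicle buffer wells and 100% = reference agonist at full effect; tested in CHO reporter cells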
# Target sequence (O43603 whole entry, looked up): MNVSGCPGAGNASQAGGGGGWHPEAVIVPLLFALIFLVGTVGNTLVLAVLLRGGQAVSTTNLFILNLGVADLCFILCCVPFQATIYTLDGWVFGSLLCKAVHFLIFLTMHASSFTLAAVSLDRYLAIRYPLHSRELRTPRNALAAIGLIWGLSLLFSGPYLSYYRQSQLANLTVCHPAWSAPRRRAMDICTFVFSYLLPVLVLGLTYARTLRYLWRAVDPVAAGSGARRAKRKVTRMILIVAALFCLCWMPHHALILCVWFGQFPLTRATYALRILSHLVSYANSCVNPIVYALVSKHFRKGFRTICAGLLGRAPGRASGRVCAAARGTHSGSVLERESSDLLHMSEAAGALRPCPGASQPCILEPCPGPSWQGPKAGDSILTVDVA
# INS promoter inh = TRM-6 insulin promoter activity inhibition. TRM-6 cells (human fetal islet line), insulin promoter-eGFP reporter, imaging; reporter expression induced with tamoxifen. inhibition, % at 2 µM. 0.9% of 130,000 active;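 active means inhibition above the mean plus 3 SD, with well images judged a real hit on visual review, cut at about 60% in these data, passing the limit was not always enough; inconclusive means inhibition over the cutoff but images rejected on review; inactive means inhibition not above the cutoff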
# PKD1 inh = PKD1 (human) kinase inhibition | PKD1 kinase fluorescence polarization assay | inhibition, %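 (about 10 µM by stock and volumes)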 | 0.056% of 200,000 active;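 active means inhibition of 50% or more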;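 further: controls were vehicle for no effect and a reference inhibitor for full effect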
# RGS16-Gao = regulators of human RGS16-Galphao interaction; O15492+P09471; bead-based flow cytometry RGS16-Galphao binding, fluorescence; actives lie on both sides; binding response (% of control), % at 10 µM; 0.38% of 220,000 active;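 active means below 25% or above 175%, edge rows of some plates excepted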;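 further: Galphao activated by GDP with aluminum fluoride before binding; 100% = wells without compound and 0% = beads without RGS; some results beyond the cut were filed as inactive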
# Target sequence (O15492 whole entry, looked up): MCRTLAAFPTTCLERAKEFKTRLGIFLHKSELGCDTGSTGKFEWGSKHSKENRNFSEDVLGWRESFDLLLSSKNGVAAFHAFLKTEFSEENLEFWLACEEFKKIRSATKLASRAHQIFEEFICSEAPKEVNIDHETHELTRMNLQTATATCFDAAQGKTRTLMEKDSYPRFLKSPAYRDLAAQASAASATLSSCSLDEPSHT
# Target sequence (P09471 whole entry, looked up): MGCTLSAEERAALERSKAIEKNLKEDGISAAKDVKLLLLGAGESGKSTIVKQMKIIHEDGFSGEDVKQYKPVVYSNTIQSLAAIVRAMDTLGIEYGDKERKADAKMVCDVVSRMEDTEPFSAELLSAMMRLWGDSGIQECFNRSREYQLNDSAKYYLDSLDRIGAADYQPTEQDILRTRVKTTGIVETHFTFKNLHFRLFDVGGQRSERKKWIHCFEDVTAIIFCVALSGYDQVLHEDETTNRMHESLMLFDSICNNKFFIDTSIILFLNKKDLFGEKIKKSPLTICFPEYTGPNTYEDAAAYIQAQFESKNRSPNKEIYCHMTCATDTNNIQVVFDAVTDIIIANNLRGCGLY
# INS promoter inh cell count = further read-out of INS promoter inh, marked with its call; normalized cell count, %; measured here: cell count, toxicity; reference of the scale not given here;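 cells exposed to compound for 48 h; stained nuclei by imaging scaled within each plate; lower means fewer cells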
# HSV augment primary fold = further read-out of HSV augment, marked with its call; fold increase; compound at 10 µM; measured here: primary screen fold increase 10 uM; tested in PC3 cells;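 GFP signal in the first replicate; 1 = infected wells without compound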
# An asterisk follows results filed as active; i = inactive; ? = inconclusive; . = no result given. Some of the compounds tested; the hit share may differ from the screen's.
# The line under a structure holds: HSV augment	HSV augment primary fold	GALR2 agonist	INS promoter inh	INS promoter inh cell count	PKD1 inh	RGS16-Gao
> COc1ccc(-n2c(SC)nc3ccccc3c2=O)cc1
 : i	0.92	-1.2	-64	88	-13	100
> CCn1ncc(/C=C2/CC3C4CC=C5CC(O)CCC5(C)C4CCC3(C)C2=O)c1C (configuration not stated)
 : .	.	-2.1	39	122	-5	.
> Cc1cccc2c(CCN)c[nH]c12
 : i	0.95	.	25	78	6	109
> CC12CCC3C(CC=C4CC(O)CCC43C)C1C/C(=C\c1cccc(F)c1)C2=O (configuration not stated)
 : i	0.89	-0.2	.	.	6	102
> COCCCn1c(N)c(C(=O)Nc2sc3c(c2C(=O)OC)CCCC3)c2nc3ccccc3nc21
 : i	0.8	-1.4	-12	138	0	106
> O=C(c1ccc(C(F)(F)F)cc1)C1CCCN(C2CCSCC2)C1 (configuration not stated)
 : i	0.85	.	.	.	-3	97
> O=[N+]([O-])c1cc(F)c(N2CCCC2)cc1Br
 : i	0.96	.	.	.	1	97
> COc1ccccc1NC1(C#N)CCCCC1
 : i	1.1	.	.	.	-1	100
> CC1=NN(c2ccccc2)C(=O)C1/C=C1\C(=O)NC(=O)N(c2ccc(C)c(C)c2)C1=O (configuration not stated)
 : .	.	-1.8	33	108	2	95
> Cc1ccc(C(=O)C2CN3CCC2CC3)cc1 (configuration not stated)
 : i	0.93	-2.7	3	92	-7	104
> O=P1(Oc2ccccc2)CC=C[C@H](COCc2ccccc2)O1 (some centres not stated)
 : i	0.89	.	.	.	.	88
> CCC(C)n1c(O)c(C=NCCN2CCOCC2)c(=O)[nH]c1=S (configuration not stated)
 : i	0.95	.	.	.	.	115
> O=C(NCC(c1cccnc1)N1CCN(c2ccc(F)cc2)CC1)Oc1ccccc1 (configuration not stated)
 : i	0.88	-2.0	50	152	-7	105
> COc1ccccc1CCNC1CCC(C(C)(C)C)CC1 (configuration not stated)
 : i	0.92	-2.7	.	.	-1	100
> CCCCC(=O)N/N=C/c1c(O)n(CC)c(=S)n(CC)c1=O
 : ?	.	-1.8	-135	119	14	99
> Cc1cc(N2C(=O)C3CCCN3C2c2ccc(Cl)c(Cl)c2)no1 (configuration not stated)
 : i	0.79	-3.9	.	.	3	93
> CC/C(=N\NC(=S)Nc1ccccc1)c1c(O)[nH]c(=O)[nH]c1=O
 : i	0.9	.	.	.	.	93
> O=[N+]([O-])/C=C1/NCCN1Cc1ccc(Cl)nc1
 : i	1	.	.	.	-5	92
> CC(=O)Nc1ccccc1C(=O)OCC(=O)c1ccc2c(c1)OCCO2
 : i	1	-2.1	.	.	8	101
> O=C(c1ccc2c3c(cccc13)CC2)C1CCCN(CC2CC2)C1 (configuration not stated)
 : i	0.72	.	-15	157	-2	99
> CC(=NCc1ccco1)c1c(O)n(-c2ccccc2C)c(=O)[nH]c1=O
 : i	1	.	.	.	.	107
> c1ccc(C2NCc3ccccc3-n3cccc32)cc1 (configuration not stated)
 : i	0.76	-0.8	.	.	-10	103
> Nc1c2c(nc3sc4c(c13)CCCC4)CCCC2
 : i	0.95	.	.	.	3	99
> Cc1cc(C=O)c(C)n1C(C)C
 : i	1	.	-6	150	-1	102
> C=CCn1c(O)c(C(CC)=NC(C)c2ccccc2)c(=O)[nH]c1=O (configuration not stated)
 : i	0.93	-3.0	2	135	1	92
> COc1c(C)cc(C(=O)C2CCCN(Cc3cnc(C)s3)C2)cc1C (configuration not stated)
 : i	0.9	.	.	.	1	104
> Cc1nc2ccc(P(=O)(O)O)cc2s1
 : i	1	.	.	.	-4	101
> O=Cc1cn(Cc2ccc(F)cc2Cl)c2ccccc12
 : i	0.99	-0.4	-3	61	-4	118
> N#CC[N+]1(CCCNP2(=O)C=C(c3ccccc3)OC(c3ccccc3)=C2)CCOCC1
 : i	0.94	.	.	.	-1	98
> c1ccc2c(CNC3CCCCCC3)c[nH]c2c1
 : i	0.79	-1.3	4	99	3	102
> N#CCCn1cc(C(=O)NCc2ccccc2)c(-c2ccc3c(c2)OCCO3)n1
 : i	1	.	.	.	1	107
> Cc1cccc(CN(C)C)c1OC(=O)N(C)C
 : i	0.45	-1.3	.	.	0	106
> C/C=C/CC1(CC)C(=O)NC(=S)NC1=O
 : i	1.1	.	.	.	.	103
> CC(=NCCN1CCCCC1)c1c(O)[nH]c(=O)[nH]c1=O
 : i	0.79	-1.1	-25	44	-2	100
> COc1ccc(CN2CCN(c3ccccc3F)CC2)c(OC)c1
 : .	.	-2.0	.	.	5	99
> COc1cccc(CN2CCN(C(=O)COc3ccc4ccccc4c3)CC2)c1
 : i	0.93	0.2	.	.	-17	104
> C[C@]12CC[C@@H]3c4ccc(O)c(O)c4CC[C@H]3[C@@H]1CC[C@@H]2O
 : i	0.61	.	.	.	.	85
> CCCn1ncc(CN2CCCC(C(=O)c3cccc(OC)c3)C2)c1C (configuration not stated)
 : i	0.96	.	-30	92	-9	177
> O=P1(Oc2ccccc2)C[C@@H](O)[C@@H](O)[C@H](COCc2ccccc2)O1 (some centres not stated)
 : i	1.1	.	.	.	.	82
> CCOC(=O)C1=C(C)OC(N)=C(C#N)C12C(=O)N(C)c1ccccc12 (configuration not stated)
 : i	0.98	-0.6	25	44	0	102

# One compound at a time, from the list above. Screens in order: HSV augment | HSV augment primary fold | GALR2 agonist | INS promoter inh | INS promoter inh cell count | PKD1 inh | RGS16-Gao
# `C[C@]12CC[C@@H]3c4ccc(O)c(O)c4CC[C@H]3[C@@H]1CC[C@@H]2O` is listed with i | 0.61 | . | . | . | . | 85
# `O=P1(Oc2ccccc2)C[C@@H](O)[C@@H](O)[C@H](COCc2ccccc2)O1` (some centres not stated) is listed with i | 1.1 | . | . | . | . | 82
# `CCCn1ncc(CN2CCCC(C(=O)c3cccc(OC)c3)C2)c1C` (configuration not stated) is listed with i | 0.96 | . | -30 | 92 | -9 | 177
# `COc1ccc(CN2CCN(c3ccccc3F)CC2)c(OC)c1` is listed with . | . | -2.0 | . | . | 5 | 99
# `CC(=NCCN1CCCCC1)c1c(O)[nH]c(=O)[nH]c1=O` is listed with i | 0.79 | -1.1 | -25 | 44 | -2 | 100

# A draw from above in order of molecular weight, ascending.
# The line under a structure holds: HSV augment	HSV augment primary fold	GALR2 agonist	INS promoter inh	INS promoter inh cell count	PKD1 inh	RGS16-Gao
> Cc1cccc(CN(C)C)c1OC(=O)N(C)C
 : i	0.45	-1.3	.	.	0	106
> CC(=NCCN1CCCCC1)c1c(O)[nH]c(=O)[nH]c1=O
 : i	0.79	-1.1	-25	44	-2	100
> COc1ccc(CN2CCN(c3ccccc3F)CC2)c(OC)c1
 : .	.	-2.0	.	.	5	99

# (listing goes on)
# The line under a structure holds: HSV augment	HSV augment primary fold	GALR2 agonist	INS promoter inh	INS promoter inh cell count	PKD1 inh	RGS16-Gao
> CC(C)n1c(O)c(C2c3cc(Cl)ccc3Oc3[nH]c(=O)n(C(C)C)c(=O)c32)c(=O)[nH]c1=O (configuration not stated)
 : i	1.1	.	.	.	.	88
> O=S(=O)(c1ccc(F)cc1)N1CCCC1c1cccnc1 (configuration not stated)
 : i	1.1	.	.	.	.	101
> CCN(CC)S(=O)(=O)c1cccc(N=Nc2c(O)n(CC)c(=S)n(CC)c2=O)c1
 : i	0.96	.	.	.	.	100
> Cn1c(=O)c2c(nc(N/N=C/c3c(O)n(C4CCCCC4)c(=S)[nH]c3=O)n2C)n(C)c1=O
 : i	0.88	.	.	.	.	99
> CCC1=C(C)C(N2CCOCC2)=NP(N2CCOCC2)(N2CCOCC2)=N1
 : i	0.98	-1.3	-36	104	-8	120
> CCOC(=O)C(O)(c1ccc(N(CC)S(=O)(=O)c2ccccc2)cc1)C(F)(F)F (configuration not stated)
 : i	0.9	-1.1	.	.	4	105
> Oc1c(Br)cc(Br)cc1Oc1ccc(Br)cc1Br
 : i	0.96	0.5	-35	120	1	103
> Nc1ccc(C2(c3ccc(N)cc3)c3ccccc3-c3ccccc32)cc1
 : i	0.93	-1.3	-17	78	8	85
> C=CCC1C(=O)NC(=S)NC1=O
 : i	0.99	.	29	96	-8	88
> O=[N+]([O-])c1cc(-c2ccc([As](=O)(O)O)cc2)ccc1[As](=O)(O)O
 : i	0.79	.	.	.	.	143
> CN(C)CC1CSCCC1(O)c1cccc(Cl)c1 (configuration not stated)
 : i	0.9	-0.5	-14	71	-7	92
> CCC(C)C1NC(=O)C(C(C)=O)=C1O (configuration not stated)
 : i	1.1	.	.	.	.	65
> CC1COC2N=C(N[N+](=O)[O-])NC2O1 (configuration not stated)
 : i	0.98	.	.	.	-2	104
> CN(C)CCCNCC(=O)Nc1ccc(Cl)cc1C(=O)c1ccccc1
 : i	0.93	.	7	74	-4	143
> Cn1c2ccccc2c2c(C(=O)N3CCC4(CC3)OCCO4)cn(C3CCCC3)c(=O)c21
 : i	0.98	-1.0	0	55	4	99
> COc1ccc(NC2=NCC(C)S2)cc1 (configuration not stated)
 : i	0.91	.	21	127	-6	98
> C/C(=C/C=C/[C@@H](C)C(=O)O)[C@H]1CN[C@H](C(=O)O)[C@H]1CC(=O)O
 : i	0.93	-1.5	55	106	0	80
> CNP1(NC)=NC(C(F)(F)F)=NC(C(F)(F)F)=N1
 : i	1.1	0.1	-17	282	0	99
> CCCC(=O)c1ccc(CP(=O)(OCC)OCC)o1
 : i	0.92	.	.	.	.	108
> O=C1NC(=O)C(=Cc2ccsc2)C(=O)N1
 : i	1	.	.	.	-3	114
> CCCCCSc1cc(O)c(C(CNC)C(C)C)cc1OC (configuration not stated)
 : i	0.64	0.1	19	119	-4	113
> Nc1c(C(=O)OCc2ccccc2)c2nc3ccccc3nc2n1Cc1cccs1
 : i	0.6	-0.1	6	39	-5	97
> O=C(COc1ccc(Cl)cc1)NC1CN2CCC1CC2 (configuration not stated)
 : i	1	-1.2	18	90	1	94
> CCOP(=S)(OCC)SCOC(=O)NCC(=O)OC
 : i	0.98	-1.6	59	106	-1	80
> CCCCSP1(=S)NCCCN1
 : i	1.1	-1.3	-100	83	-3	264
> Cn1c(=O)n(C)c2cc([N+](=O)[O-])c(N3CCNCC3)cc21
 : i	1	.	0	94	-2	96
> CCN(CC)P(=O)(c1n(CC)cc[n+]1CC)N(CC)CC
 : i	0.96	.	.	.	2	97
> Fc1ccccc1N1CCN(Cc2ccc3c(c2)OCO3)CC1
 : i	0.91	-1.1	-4	115	-15	102
> CN1CCN(c2ccc([N+](=O)[O-])c(N)c2)CC1
 : i	1.1	-0.4	-42	99	5	102
> CC1CN2c3ccc([N+](=O)[O-])cc3CC3(C(=O)N(C)C(=O)N(C)C3=O)C2C(C)O1 (configuration not stated)
 : i	1.2	.	.	.	.	106
> COCCNC(=O)c1ccc(N2CC3CC(C2)c2cccc(=O)n2C3)c([N+](=O)[O-])c1 (configuration not stated)
 : i	0.86	.	-63	121	-3	102
> CC(C(=O)c1cn(C)c2ccccc12)c1ccccc1 (configuration not stated)
 : i	1	-0.7	-28	123	13	104
> COc1ccc2c(c1)c(C(=O)CN1CCC3(CC1)OCCO3)c(C)n2Cc1ccccc1
 : i	0.99	0.3	-11	91	1	97
> CCC(C)C1N=C(c2ccccc2)c2cc(Cl)ccc2N(CC(=O)NCc2ccco2)C1=O (configuration not stated)
 : i	0.95	-0.8	.	.	-6	101
> Cc1ccsc1C(=O)C1CCCN(Cc2ccn[nH]2)C1 (configuration not stated)
 : i	1.1	.	.	.	0	106
> O=C(c1ccc2c(c1)OCO2)N1CCC2(CC1)OCCO2
 : i	0.68	-1.3	-56	105	-3	100
> CC(C)(O)[C@H]1O[C@H]2CC[C@@]3(C)[C@@](O)(CC[C@H]4Cc5c([nH]c6ccccc56)[C@@]43C)C2=CC1=O
 : i	1	.	40	89	8	100
> CN1C(=O)C(=Cc2ccc(N3CCCCC3)o2)C(=O)N(C)C1=S
 : ?	.	1.4	.	.	-22	113
> CCOc1ccc(Cc2c(O)[nH]c(=O)[nH]c2=O)cc1
 : i	0.97	-2.2	6	134	0	97
> NC(=O)CSc1nnc([C@@H](N)Cc2c[nH]c3ccccc23)o1
 : i	0.81	0.5	-14	78	3	48
> O=C(C(=O)N1CCOCC1)c1cn(Cc2ccccc2)c2ccccc12
 : i	0.93	.	.	.	-9	100
> O=c1c2ccccc2nc(CNCC2CCCO2)n1-c1ccc(F)cc1 (configuration not stated)
 : i	1	.	.	.	0	103
> CSc1nnc(OC(=O)N(C)C)n1-c1ccc(Cl)cc1
 : i	0.97	.	.	.	.	97
> OC1C2CN3CN(C2)CC1(c1ccccc1)C3 (configuration not stated)
 : i	0.86	.	.	.	.	99
> CC12CCCCC1N(O)CN2O (configuration not stated)
 : i	0.96	-1.2	-3	123	3	101
> COc1ccc(-c2cc(=NCCC(=O)O)c3cc(C)ccc3o2)cc1
 : i	0.95	.	-11	58	-11	118
> O=C1NC(=O)N(c2ccccc2F)C(=O)/C1=C/c1ccc(Sc2nc3ccccc3[nH]2)o1
 : ?	.	0.7	.	.	1	120

# Screening results as filed in PubChem BioAssay.
